Screens as filed in PubChem BioAssay.
Vaccinia mCherry – vaccinia inhibition (mCherry reporter); 310,000 tested, 0.63% active; Vaccinia virus mCherry reporter infection, fluorescence; about a quarter of the inactives have no number; Potency, µM (series often up to 36.5 µM), for inactives: at the highest dose activity change, negative = inhibition, hits mostly inhibitors; active = well fitted inhibition curve with a large enough effect; inconclusive = small, poorly fitted or top-dose-only effect; inactive = no such curve, though single readings can be large or run the other way; tested in A549 cells; note: nearly all actives have a fitted effect of over 35% in size; inactives centre near -10
Vaccinia Venus – vaccinia inhibition (Venus reporter); AID 720580; 330,000 tested, 0.46% active; Potency, µM (series often up to 36.5 µM), for the others: at the top dose activity change, negative = inhibition, hits mostly inhibitors; Vaccinia virus Venus reporter expression, fluorescence; active means well fitted inhibition curve with a large enough effect; inconclusive means small, poorly fitted or top-dose-only effect; inactive means no such curve, though single readings can be large or run the other way; tested in A549 cells; note: nearly all actives have a fitted effect of over 30% in size; inactives centre near -10
* marks the source's active call; other numbers are inactive results; i = inactive; ? = inconclusive; nt = no result given; & = joins results of further samples; [ ] = dose if it differs, or a comment. % is set by controls: 0 for no effect and ±100 for the full control effect; potency is the fitted concentration of half-maximal effect.

Start of the data: the first four records (preview)
SMILES	Vaccinia mCherry	Vaccinia Venus
O=C(NC1CCCC1)c1cccc2c1C(=O)c1ccc(N3CCCCC3)cc1S2(=O)=O	i	-13%
C[C@@H]1CN([C@@H](C)CO)C(=O)c2cc(Br)cnc2O[C@H]1CN(C)C(=O)c1ccccc1F	-12%	-4%
CC(C)Oc1cccc(C(=O)C2CCCN(C(=O)c3cc(C(F)(F)F)[nH]n3)C2)c1 (configuration not stated)	-22%	-19%
CC(Oc1cccc(Cl)c1)C(=O)N(C)CC(=O)Nc1ccc(N2CCOCC2)cc1 (configuration not stated)	-24%	-12%

All compounds of this part, from the start:
SMILES	Vaccinia mCherry	Vaccinia Venus
O=C(NC1CCCC1)c1cccc2c1C(=O)c1ccc(N3CCCCC3)cc1S2(=O)=O	i	-13%
C[C@@H]1CN([C@@H](C)CO)C(=O)c2cc(Br)cnc2O[C@H]1CN(C)C(=O)c1ccccc1F	-12%	-4%
CC(C)Oc1cccc(C(=O)C2CCCN(C(=O)c3cc(C(F)(F)F)[nH]n3)C2)c1 (configuration not stated)	-22%	-19%
CC(Oc1cccc(Cl)c1)C(=O)N(C)CC(=O)Nc1ccc(N2CCOCC2)cc1 (configuration not stated)	-24%	-12%
COc1ccccc1OCCN1CSC(=S)N(C)C1	-19%	-11%
COc1ccc(N(CC(=O)NC2CCCC2)C(=O)CCC(=O)Nc2cc(C)on2)cc1OC	-3%	4%
O=C(CC(=O)c1cccc([N+](=O)[O-])c1)Nc1ccccc1Cl	i	2%
COc1ccc(C(=O)COC(=O)c2ccc3c(c2)OCCO3)c(OC)c1	-9%	-4%
CCOC(=O)CC(=O)CSc1nc2sc(C)cc2c(=O)n1Cc1ccco1	i	-12%
CC(=O)OC1CC2C(C)(C)C(=O)CC[C@]2(C)C2CC[C@]3(C)C(=CC(=O)OC3c3ccoc3)[C@]12C (some centres not stated)	-3%	-27%
O=C(NNC(=O)C1CCCN(S(=O)(=O)c2ccc3ccccc3c2)C1)C1CC1 (configuration not stated)	i	-9%
Cc1nn(C)c(C(=O)N2CCN(C(=O)c3ccco3)CC2)c1Br	-12%	-12%
O=C(O)c1cnn(-c2nc(-c3ccc(Cl)c(Cl)c3)cs2)c1C(F)(F)F	-3%	-8%
Cc1ccc2c(c1)N(CC(=O)NCCCN1CCCCC1)C(=O)c1cccnc1O2	-6%	-9%
COc1ccc(N2CCN(C(=O)CSCc3nc(-c4ccccc4Cl)oc3C)CC2)cc1	?	-29%
CC1CN(CCc2ccccc2)c2nc3c(c(=O)[nH]c(=O)n3C)n2C1 (configuration not stated)	nt	?
Nc1ccc(-c2cc(-c3ccc(N)cc3)nc(-c3ccccc3)n2)cc1	-11%	-3%
C[C@@H]1CN([C@@H](C)CO)C(=O)CCCn2nncc2CO[C@H]1CN(C)S(=O)(=O)c1cccc(F)c1	i	-9%
Nc1nonc1C(=O)N/N=C/c1ccc(-c2cccc([N+](=O)[O-])c2)o1	-3%	1%
COc1ccc(Cl)cc1NC(=O)CN(C)C(C)C(=O)NC(=O)NC1CCCCC1 (configuration not stated)	-3%	-5%
CSc1cccc2sc(NC(=O)C3=COCCO3)nc12	-6%	-18%
O=C(CCN1C(=O)C2CC=C(Cl)CC2C1=O)NC1CCCCC1 (configuration not stated)	-8%	-9%
CCOC(=O)c1cccc(NC(=O)NCc2ccc3c(c2)CCN3C(=O)c2ccccc2)c1	?	?
COc1ccc(C(C)=O)cc1CSc1nc2cc(Cl)ccc2o1	?	-29%
COc1ccc(-c2noc(-c3ccc(N4CCN(c5ccc(OC)cc5)CC4)c([N+](=O)[O-])c3)n2)cc1	-4%	-5%
Cc1cccc(NC(=O)c2cn(-c3ccccc3)nc2-c2ccccc2)c1C	-24%	-9%
CC(=O)N1CCc2c(sc(NC(=O)CS(=O)(=O)c3ccc(F)cc3)c2C(N)=O)C1	-13%	-12%
CC(C)(C)C(=O)NC(=S)Nc1ccccc1C(N)=O	i	-8%
O=C1NC(CCc2ccccc2)C(=O)N1Cc1ccc(Br)cc1 (configuration not stated)	-8%	-22%
COc1ccccc1C(=O)Nc1ccc2c(c1)CN(C(=O)CSC)CC2	-5%	-15%
Cc1cc2cc3c(cc2nc1SCC(=O)OC(C)C)OCO3	-4%	-14%
O=C(CS(=O)(=O)c1cn(CC(=O)N2CCCC2)c2ccccc12)Nc1ccccc1F	i	-3%
CCOC(CNC(=O)C(=O)Nc1cc2c3c(c1)CC(=O)N3CCC2)OCC	3%[7.34 µM]	0%[7.34 µM]
CCn1c(=O)n(CC(=O)Nc2cccc(OC)c2)c(=O)c2ccccc21	nt	-12%
CC(C)CCn1c(=O)c2sccc2n2c(CCCC(=O)NC(C)c3ccccc3)nnc12 (configuration not stated)	-19%	-11%
Cc1ccc(S(=O)(=O)NNC(=O)c2snnc2C)cc1	-13%	-9%
CCOc1cc(C)c(C(C)C)cc1S(=O)(=O)N1CCN(C)CC1	nt	-30%
COc1ccc(CC2S/C(=N/N=C/c3ccc(O)cc3)NC2=O)cc1 (configuration not stated)	?	-4%
COc1ccccc1-c1cc(NC=O)c2ncc(-c3ccc(F)cc3)n2c1	?	?
CCc1nnc(NC(=O)CSc2nc3c(c(=O)n2C)SC(C)C3)s1 (configuration not stated)	2%	-7%

Entries of single compounds from above. Order of values: Vaccinia mCherry, Vaccinia Venus
Listed for O=C(CCN1C(=O)C2CC=C(Cl)CC2C1=O)NC1CCCCC1 (configuration not stated) → -8%, -9%
Listed for COc1ccc(C(C)=O)cc1CSc1nc2cc(Cl)ccc2o1 → ?, -29%
Listed for CCOC(=O)c1cccc(NC(=O)NCc2ccc3c(c2)CCN3C(=O)c2ccccc2)c1 → ?, ?
Listed for CSc1cccc2sc(NC(=O)C3=COCCO3)nc12 → -6%, -18%
Listed for O=C1NC(CCc2ccccc2)C(=O)N1Cc1ccc(Br)cc1 (configuration not stated) → -8%, -22%

(listing goes on)
SMILES	Vaccinia mCherry	Vaccinia Venus
COc1ccc(OC)c(Nc2nc(-c3ccc(O)c(O)c3)cs2)c1	-25%	-11%
CC(=O)Nc1ccc(S(=O)(=O)N(Cc2ccccc2)C(C)C)cc1	?	?
COc1cccc(CNC2CCCc3ccccc32)c1OC (configuration not stated)	-28%	-1%
CN(C(=O)c1ccc2c(c1)OCO2)C1CCCCC1	-7%	3%
CC(C)CCN(C(=O)C1CSC2(C)CCC(=O)N12)c1c(N)n(Cc2ccccc2)c(=O)[nH]c1=O (configuration not stated)	i	-13%
O=C(Nc1ccc(S(=O)(=O)NC2=NCCCCC2)cc1)c1ccc([N+](=O)[O-])s1	13µM*	11µM*
COCCCNC(=O)COc1cc(C)c(Cl)c(C)c1	-13%	-9%
COc1cc(C(C)=O)cc(OC)c1O	-15%&-7%	-13%&-7%
CCOc1ccc(-c2nnc(SCC(=O)NCc3ccccc3)o2)cc1	-4%	-10%
c1ccc(C[n+]2cccc3c4ccccc4ccc32)cc1	?	?
COc1ccc(Nc2c(-c3ccc(Cl)cc3)nc3cnccn23)cc1OC	-9%	8%
COc1cc2c(cc1OC)CN(CC(=O)Nc1cccc(C)c1)CC2	-5%	-9%
O=C(O)c1cc2cccc([N+](=O)[O-])c2[nH]1	-4%&-1%	-7%&-17%
O=C(O)c1ccc(N2C(=O)c3cccc4cccc(c34)C2=O)cc1	-13%	-3%
COc1ccc(N2CCN(CC(O)COc3ccccc3[N+](=O)[O-])CC2)cc1 (configuration not stated)	-25%	-11%
CC1(C)C(O)CC(O)[C@]2(C)C1CC(O)[C@]1(C)C2CC[C@@]2(C)C(c3ccoc3)CC3OC312 (some centres not stated)	-12%	0%
CCCCn1c(C)cc(C)c(S(=O)(=O)c2ccccc2C)c1=O	-22%	-16%
CN(C)c1ccc(/C=N/NC(=O)c2nonc2N)cc1[N+](=O)[O-]	7%	0%
Cc1ccc(S(=O)(=O)N2CCN(c3nc(-n4cnc5ccccc54)nc4ccccc34)CC2)cc1	-2%	-10%
O=C(COc1ccccc1Cl)NC(=O)NC1CCCCC1	-16%	-4%
CC1CCCCN1CCCNC(=O)CN1C(=O)c2cccnc2Oc2ccc(Cl)cc21 (configuration not stated)	-13%&-12%	-11%&-11%
Cc1ccccc1-c1cc2nc(NCc3cccnc3)n(C)c(=O)c2s1	8%	-18%
O=C(NCCCNCCCNC(=O)c1ccccn1)c1ccccn1	-15%	-13%
COc1cc(S(=O)(=O)N2CCOCC2)ccc1NC(=O)CN1c2cccc3cccc(c23)S1(=O)=O	-18%	-9%
CC(=O)Nc1ccc(NC(=O)CCCSc2nc3ccccc3[nH]2)cc1	i	-17%
Cn1c(Nc2ccc(Cl)cc2)cc(=O)n(C)c1=O	-12%	-12%&-8%
CCN(CC)S(=O)(=O)c1ccc(C)c(NC(=O)CSc2nnnn2C)c1	-16%	-16%
CCCCOC(=O)c1ccccc1N	-24%	-16%
Cc1ccc(NC(=O)CCc2ccc(C)o2)cc1	i	-16%
CC(C)(C)c1ccc(CC(=O)N2CCC2(C)C(=O)NCc2cccs2)cc1 (configuration not stated)	27%	4%
O=C1NC(=O)N(Cc2ccc(F)cc2)C(=O)/C1=C/c1cccs1	i	-2%
Cc1ccccc1NC(=O)c1c(C)oc2ccc(O)c(CN3CCOCC3)c12	-12%	-3%
COc1ccc(Cl)cc1NC(=O)C/C(C)=N/NC(=O)c1ccc(O)cc1	-2%	-14%
Cn1c(=O)c2c(ncn2CC(=O)N2CCc3ccccc3C2)n(C)c1=O	nt	-20%
O=C1C=C(c2ccccc2)C[C@@H](c2ccc3c(c2)OCO3)C1	i	-9%
CN(C)S(=O)(=O)c1ccc(N2CCCC2)c(C(=O)N2CCC(C(N)=O)CC2)c1	i	-14%
FC(F)(F)c1cc(CCN2C(=S)NC[C@@H]2CC2CCCCC2)cc(C(F)(F)F)c1	-8%	-25%
COC(=O)CSc1nnc(-c2ccccn2)n1N	-10%	-5%
O=C(NCC1OCCc2ccccc21)c1ccco1 (configuration not stated)	nt	-8%
Cn1c(NCc2ccncc2)nc2cc(-c3ccsc3)sc2c1=O	23%	-7%
O=C(Nc1cccc(O)c1)C(=O)Nc1ccccn1	?	-14%
CN(CCO)C(=O)c1cn(C2CCCN(Cc3ccc4ccccc4c3)C2)nn1 (configuration not stated)	i	-12%
CCOC(=O)c1c(C)n(C(C)C)c2ccc(OC(=O)c3ccc(N4C(=O)CCC4=O)cc3)cc12	-12%	-13%
CCOC(=O)c1sc(NC(=O)c2cc3nc(-c4ccc(Br)cc4)cc(C(F)(F)F)n3n2)c(C(=O)OCC)c1C	-14%	-28%
O=C(O)CC(NC(=O)COc1ccccc1)c1cccc([N+](=O)[O-])c1 (configuration not stated)	i	-7%
COc1cc2c(cc1OC)C(c1ccccc1OC(C)C)CC(=O)N2 (configuration not stated)	i	-6%
CCNc1c(NC(C)=O)c(=O)oc2ccccc12	-3%	1%
Cc1cccc(CSc2nc3c(c(=O)[nH]2)CCC3)c1	-7%	-1%
Cn1c(=O)c2cc(NC(=O)NCc3ccccc3)ccc2n1Cc1cccc(C(F)(F)F)c1	?	?
O=C(Cn1nnc(-c2ccccc2)n1)N1CCCCC1	-1%	-18%
Cc1nc(CS(=O)(=O)c2ccccc2)cc(Sc2ccccc2Cl)n1	nt	?
COC(=O)[C@@]12C[C@@H](CC(=O)NCc3ccccc3)C(=O)N(Cc3ccco3)C1=CCC(C)(C)C2	-22%	-24%
Cn1c(=Nc2ccc(N3CCOCC3)cc2)ccc2ccccc21	nt	-1%
CCCn1nc2cc(C(=O)NCCc3cccs3)ccc2c1OCC	i	-20%
c1ccc(CSc2cc3ccccc3[nH]2)cc1	?	-7%
Cc1ccc(S(=O)(=O)NC2c3cccc4cccc(c34)C2Sc2nncn2C)cc1 (configuration not stated)	-22%	-10%
O=C(NC1CCCN(Cc2ccccc2F)C1)C1CCC1 (configuration not stated)	-25%	-8%
Cc1ccc2nc(SCC(=O)NNC(=O)c3ccccc3)[nH]c2c1	i	-10%
Cc1cc2nnc(SCC(=O)OC(C)C)n2c2ccccc12	0%	2%
CCOC(=O)C1CCN(C(=O)/C=C/c2ccc(S(=O)(=O)N3CCOCC3)cc2)CC1	-9%	-13%
Next part.
SMILES	Vaccinia mCherry	Vaccinia Venus
O=S(=O)(NNc1ccc(Cl)nn1)c1ccc(F)cc1	-16%	-5%
CCOC(=O)Cn1nc(-c2ccccc2)c2cnc3ccc(CC)cc3c21	-16%	0%
C#CCNC(=O)C1=C[C@@H](c2ccc(C#C)cc2)C[C@@H](OCCCCO)O1	i	-13%
COc1ccc(C2/C=C\CN(C(=O)c3ccccc3)CC(=O)N2Cc2ccc(F)cc2)cc1 (configuration not stated)	-19%	1%
Cc1cc(C)c(NC(=S)NC(=O)c2ccccc2)cc1C	-3%	-21%
CCN(CC)c1ccc(NC(=O)Cn2c(C(C)NC(=O)c3ccc(C)cc3)nc3ccccc32)cc1 (configuration not stated)	8%	2%
Cc1ccc2ccccc2c1C(O)c1ncc(-c2cccc(F)c2)[nH]1 (configuration not stated)	-11%	-7%
CCOC(=O)c1[nH]c(C)c(C(=O)/C=C/c2ccc(C(=O)O)cc2)c1C	-11%	-18%
Cc1nc2ccccc2c2oc(C(=O)N3CCC(N4CCCCC4)CC3)cc12	16%	6%
OCCC1CN(Cc2ccc3ncccc3c2)CCN1Cc1ccccc1 (configuration not stated)	-2%	-10%
CCN1CCN(C(=O)/C=C\C(=O)O)CC1	i	-15%
CC(C)N1CCN(Cc2cnc(-c3ccccc3)s2)CC1CCO (configuration not stated)	i	1%
O=C(CSc1nc(-c2ccccc2)no1)N1CCN(c2ccc(F)cc2)CC1	-9%	9%

Rows were taken by chance; about 0.87% have a hit in one of these screens.
